VACV Venus inh = vaccinia inhibition (Venus reporter). Vaccinia virus Venus reporter expression, fluorescence. AID 720580. actives 0.46% (n = 330,000). Potency, µM (highest dose often 36.5 µM), inactives show at the top dose activity change, negative = inhibition, most hits filed as inhibitors; active means well fitted inhibition curve with a large enough effect; inconclusive means small, poorly fitted or top-dose-only effect; inactive means no such curve, though single readings can be large or run the other way; tested in A549 cells; also: nearly all actives have a fitted effect of over 30% in size; inactives centre near -10
VACV mCherry inh = inhibitors of vaccinia virus infection (mCherry reporter signal); Vaccinia virus mCherry reporter infection, fluorescence; about a quarter of the inactives have no number; Potency, µM (doses to about 36.5 µM), inactives show top-dose activity change, negative = inhibition, most hits filed as inhibitors; actives 0.63% (n = 310,000); AID 720579; active = well fitted inhibition curve with a large enough effect; inconclusive = small, poorly fitted or top-dose-only effect; inactive = no such curve, though single readings can be large or run the other way; tested in A549 cells; also: nearly all actives have a fitted effect of over 35% in size; inactives centre near -10
* marks the source's active call; other numbers are inactive results; & = joins results of further samples; [ ] = another dose, or the depositor's remark. % is scaled to controls: 0 for no effect and ±100 for the full control effect; potency is read from the fitted curve at half-maximal effect. Rows were taken by chance. Share with any hit: about 0.88%.

Screening Cc1ccc(CNC(=O)c2ccc3nc(SCc4ccc(F)cc4)[nH]c3c2)cc1 returned VACV Venus inh inconclusive and VACV mCherry inh -22%.
`COc1ccc(C2C(C(C)=O)=C(O)C(=O)N2c2ccc(O)cc2)cc1` (stereo not drawn) gave VACV Venus inh -3% and VACV mCherry inh inactive.
For Cc1ccc(CNC(=O)c2ccc[nH]2)cc1 the results were VACV Venus inh -2% and VACV mCherry inh 0%.
COc1ccc(Cc2nc(-c3cccc(C)c3)no2)cc1 was read as VACV Venus inh -18%.
Screening O=C(C[C@H]1C/C=C\C[C@@H](Cc2ccc(F)cc2)C(=O)O[C@@H](c2ccccc2)CNC1=O)NCCO returned VACV Venus inh -16% and VACV mCherry inh -1%.
Screening Fc1ccccc1NC(=S)NNc1ncc(C(F)(F)F)cc1Cl returned VACV Venus inh inconclusive and VACV mCherry inh inconclusive.
Screening Cc1cccc(OP(=O)(Oc2ccccc2)OC(c2ccccc2)C(F)(F)F)c1 (stereo not drawn) returned VACV Venus inh -7% and VACV mCherry inh -13%.
For O=S(=O)(c1cccs1)N1CN(Cc2ccco2)c2nc3ccccc3nc21 the results were VACV Venus inh 1% and VACV mCherry inh 13%.
COc1ccc(NC(=O)Nc2nnc(N3CCC(C)CC3)s2)cc1OC was read as VACV Venus inh 1% and VACV mCherry inh 0%.
`Cc1[nH]c2ccccc2c1C(=O)COC(=O)CCS(=O)(=O)c1ccccc1Cl` gave VACV Venus inh -10% and VACV mCherry inh -14%.
`COc1cccc(N2C(=O)CC(c3c[nH]c4ccccc34)C2=O)c1` (stereo not drawn) gave VACV Venus inh -8% and VACV mCherry inh -14%.
CC1=C(C(=O)OC(C)C)C(c2ccc(Cl)cc2)n2c(sc(=Cc3ccc(OCC(=O)O)cc3)c2=O)=N1 (stereo not drawn) was read as VACV Venus inh -3% and VACV mCherry inh 33%[activator].
Cc1sc2nc(C3CC3)nc(N3CCN(C(=O)c4ccc(F)cc4)CC3)c2c1C was read as VACV Venus inh -5% and VACV mCherry inh -11%.
`CN(C(=O)c1ccccc1C(=O)OCC(=O)NCc1ccccc1)C1CCCCC1` gave VACV Venus inh -20% and VACV mCherry inh inactive.
For CC1CCCN(C(=O)COC(=O)C2CCN(S(=O)(=O)c3ccc4c(c3)OCCO4)CC2)C1 (stereo not drawn) the results were VACV Venus inh 0% and VACV mCherry inh -14%.
For O=C(COCc1cc(-c2ccc3c(c2)OCO3)on1)Nc1cccnc1 the results were VACV Venus inh -5% and VACV mCherry inh -9%.
`COc1ccc(-c2cnc(C)o2)cc1S(=O)(=O)Nc1c(C)cc(C)cc1C` gave VACV Venus inh -16% and VACV mCherry inh -19%.
`Cc1cc(C(C)(C)C)cc(S(=O)(=O)NCCO)c1C` gave VACV Venus inh -9%.
CCN(CC)S(=O)(=O)c1ccc(/C(O)=C(\C#N)c2nc3ccccc3n2C)cc1 was read as VACV Venus inh -12% and VACV mCherry inh -26%.
CCCCN1CC[C@H]2C=CC[C@@H](C(=O)NCCc3ccccc3)[C@H]2C1=O was read as VACV Venus inh -16%&-7% and VACV mCherry inh -11%&-12%.
`CC1(C)N=C(N)N=C(N)N1c1ccc(F)cc1F` gave VACV Venus inh -8%.
For CCn1cc(CNC(=O)c2cc(-c3cc(OC)ccc3OC)nc3ccccc23)c(C)n1 the results were VACV Venus inh 4% and VACV mCherry inh -10%.
Screening COc1cc(/C=C/C(=O)N2CCC=CC2=O)cc(OC)c1OC returned VACV Venus inh inconclusive and VACV mCherry inh -19%&-16%.
For COc1ccc(N2CCN(C(=O)CCc3c[nH]c4ccccc34)CC2)cc1 the results were VACV Venus inh -8% and VACV mCherry inh -2%.
`COc1ccc(/C=C2/SC(=S)N(CCCC(=O)N3CCN(C)CC3)C2=O)cc1` gave VACV Venus inh inconclusive and VACV mCherry inh inconclusive.
Screening CC/C(=C/c1ccccc1OC)c1cc(-c2ccccc2)cc2oc3ccccc3c12 returned VACV Venus inh -20% and VACV mCherry inh inactive.
`CC1C=CC=CC=CC=CC=CC=CC=CC(OC2OC(C)C(O)C(N)C2O)CC2OC(O)(CC(O)CC(O)C(O)CCC(O)CC(O)CC(=O)OC(C)C(C)C1O)CC(O)C2C(=O)O` (stereo not drawn) gave VACV Venus inh inconclusive and VACV mCherry inh inconclusive.
Screening CCc1nonc1NC(=O)c1oc2cc(Br)ccc2c1C returned VACV Venus inh -29% and VACV mCherry inh -5%.
`Cc1ccccc1CNC(=O)CCCn1c(=O)c2cccn2c2ccccc21` gave VACV Venus inh -15% and VACV mCherry inh -14%.
For CC(=O)NC(CC(=O)OCC(=O)NCCc1ccccc1)c1ccccc1 (stereo not drawn) the results were VACV Venus inh -10% and VACV mCherry inh -13%.
`CC(C)/C=N\NC(=O)CCCCC(=O)N/N=C/C(C)C` gave VACV Venus inh 5% and VACV mCherry inh -9%.
Screening CSc1nsc(SCC(=O)Nc2ccc(Br)cn2)n1 returned VACV Venus inh inconclusive.
For Cn1ccc2cc(S(=O)(=O)N3CCCC(C(=O)NCc4ccccc4F)C3)ccc21 (stereo not drawn) the results were VACV Venus inh 6% and VACV mCherry inh -10%.
`Cc1cccc(N(C)C(=O)c2cc(S(=O)(=O)N3CCCC3)cn2C)c1` gave VACV Venus inh -8%&-4% and VACV mCherry inh -11%&-8%.
`Cc1ccc(C)c(-c2nnc(NC(=O)CCS(=O)(=O)c3ccccc3)o2)c1` gave VACV Venus inh -13% and VACV mCherry inh -2%.
`N#C/C(=C\c1ccc(F)cc1)c1nc(-c2ccc(-c3ccccc3)cc2)cs1` gave VACV Venus inh -5% and VACV mCherry inh -10%.
Screening CCCn1nnc(NC(=O)c2ccc(F)cc2)n1 returned VACV Venus inh 7%.
For CC(Oc1ccc(Cl)cc1)C(=O)Nc1sccc1C(N)=O (stereo not drawn) the results were VACV Venus inh -23% and VACV mCherry inh inactive.
COc1ccc(/C=C/c2nc(C#N)c(N3CCC(C(N)=O)CC3)o2)cc1OC was read as VACV Venus inh -9% and VACV mCherry inh -18%.
Screening O=C(CN1CCOCCOCCOCC1)Nc1ccccc1 returned VACV Venus inh -4% and VACV mCherry inh inactive.

Pulled by structure from above (2):
COc1ccc(/C=C/c2nc(C#N)c(N3CCC(C(N)=O)CC3)o2)cc1OC was read as VACV Venus inh -9% and VACV mCherry inh -18%.
Screening O=C(CN1CCOCCOCCOCC1)Nc1ccccc1 returned VACV Venus inh -4% and VACV mCherry inh inactive.

Next part
Screening CC1CN(S(=O)(=O)c2cccc(-c3cn4ccccc4n3)c2)CC(C)O1 (stereo not drawn) returned VACV Venus inh -25% and VACV mCherry inh inconclusive.
For CC(C)CCNC(=O)C1CCN(C(=O)N2CCOc3ccc(Cl)cc32)CC1 the results were VACV Venus inh -10% and VACV mCherry inh -15%.
`Cc1ccc(CNC(=O)CSCc2cccc(F)c2)cc1` gave VACV Venus inh 0% and VACV mCherry inh -1%.
`COc1ccc(N2CC(NC(=O)c3ccc(S(=O)(=O)N4CCOCC4)cc3)CC2=O)cc1` (stereo not drawn) gave VACV Venus inh -13% and VACV mCherry inh -2%.
`COc1ccc(C2CC(=O)C(C=NCCCN3CCOCC3)=C(O)C2)cc1` (stereo not drawn) gave VACV Venus inh -12% and VACV mCherry inh inactive.
`CSc1ccc(CNC(=O)CCc2c(C)nn(-c3ccc(N4CCCC4)nn3)c2C)cc1` gave VACV Venus inh -11% and VACV mCherry inh -5%.
Cc1cc([N+](=O)[O-])nn1CC(=O)NNC(=S)Nc1ccc(F)cc1 was read as VACV Venus inh 0% and VACV mCherry inh -10%.
For CCOC(=O)C1(C)CCCN(C(=O)Cc2ccc3ccccc3c2)C1 (stereo not drawn) the results were VACV Venus inh -2% and VACV mCherry inh -20%.
Screening CC(=O)Nc1ccc(S(=O)(=O)/N=C2/NC(=O)/C(=C\c3ccco3)S2)cc1 returned VACV Venus inh -19% and VACV mCherry inh -17%.
`CCOC(=O)/C(=C\C=C\c1ccccc1)NC(=O)c1ccccc1` gave VACV Venus inh -15% and VACV mCherry inh -23%.
`Cc1ccc(O)c(C2=NNC(O)(C(F)(F)F)C2)c1` (stereo not drawn) gave VACV Venus inh inconclusive and VACV mCherry inh -9%[1.46 µM].
`COc1ccc(NC(=S)NNS(=O)(=O)c2ccc3ccccc3c2)c(OC)c1` gave VACV Venus inh 5% and VACV mCherry inh -2%.
Cc1ccc(C(=O)Nc2ccc(Nc3ccccc3)cc2)cc1Br was read as VACV Venus inh -22% and VACV mCherry inh -25%.
Screening CC/C(=C1/C(=O)CC(C)(C)C(C(=O)OC)C1=O)N1CCCC1 (stereo not drawn) returned VACV Venus inh 5% and VACV mCherry inh -8%.
`Cc1ccc(C(=O)Nc2ccc3c(c2)OCO3)cc1S(=O)(=O)N1CCCCC1` gave VACV Venus inh -27% and VACV mCherry inh inconclusive.
COc1cccc(-c2cc(=O)c3cc(NC(C)=O)ccc3[nH]2)c1 was read as VACV Venus inh -15% and VACV mCherry inh inactive.
For CCOc1ccc(NC(=O)CN(C)C(=O)c2cc(C3CC3)nn2-c2ccccc2)cc1OCC the results were VACV Venus inh -16% and VACV mCherry inh -7%.
For O=C1/C(=C/c2cccc(Cl)c2)CSc2sccc21 the results were VACV Venus inh -10% and VACV mCherry inh inactive.
For C#CCOCCOCCOCCNc1nc(N2CCN(C(=O)CCCCCCCCCCNC(=O)[C@@H](CCC(=O)O)n3cc(CCCCCN)nn3)CC2)nc(N2CCN(C(=O)CCCCCCCCCCNC(=O)[C@H](CO)n3cc(CCCCCN)nn3)CC2)n1 the results were VACV Venus inh inconclusive and VACV mCherry inh inactive.
For Cc1ccc(S(=O)(=O)N2CCC3(CC2)CC(=O)c2ccccc2O3)cc1 the results were VACV Venus inh -6% and VACV mCherry inh inactive.

Arranged by molar mass (low to high): some entries from above
Screening CC/C(=C1/C(=O)CC(C)(C)C(C(=O)OC)C1=O)N1CCCC1 (stereo not drawn) returned VACV Venus inh 5% and VACV mCherry inh -8%.
COc1cccc(-c2cc(=O)c3cc(NC(C)=O)ccc3[nH]2)c1 was read as VACV Venus inh -15% and VACV mCherry inh inactive.
Cc1cc([N+](=O)[O-])nn1CC(=O)NNC(=S)Nc1ccc(F)cc1 was read as VACV Venus inh 0% and VACV mCherry inh -10%.
Screening CC(=O)Nc1ccc(S(=O)(=O)/N=C2/NC(=O)/C(=C\c3ccco3)S2)cc1 returned VACV Venus inh -19% and VACV mCherry inh -17%.
For CCOc1ccc(NC(=O)CN(C)C(=O)c2cc(C3CC3)nn2-c2ccccc2)cc1OCC the results were VACV Venus inh -16% and VACV mCherry inh -7%.
For C#CCOCCOCCOCCNc1nc(N2CCN(C(=O)CCCCCCCCCCNC(=O)[C@@H](CCC(=O)O)n3cc(CCCCCN)nn3)CC2)nc(N2CCN(C(=O)CCCCCCCCCCNC(=O)[C@H](CO)n3cc(CCCCCN)nn3)CC2)n1 the results were VACV Venus inh inconclusive and VACV mCherry inh inactive.

Following part:
CC1CCN(C2=NC(=O)/C(=C/c3ccc(O)cc3)S2)CC1 was read as VACV Venus inh -20% and VACV mCherry inh -11%.
Screening CCC1=C(OC(=O)c2ccccc2)C(C)(C)C(c2ccccc2)OC1=O (stereo not drawn) returned VACV Venus inh -3%.
`Cc1ccc(C)c(Nc2nn3c(=O)c4ccc(C(=O)NCc5cccs5)cc4nc3s2)c1` gave VACV Venus inh inconclusive and VACV mCherry inh inconclusive.
`CCOC(=O)NC1(NC2CCCCC2)Oc2ccccc2O1` gave VACV Venus inh -15% and VACV mCherry inh -16%.
For COc1ccc(-c2csc(C3=C(O)CN(Cc4ccc(Cl)cc4)C3=N)n2)cc1OC the results were VACV Venus inh -27% and VACV mCherry inh -20%.
Screening CN(CCc1ccccc1)C(=O)c1ccc(NC(=O)Cc2cccc(NC(=O)C3CCN(C(=O)C4CCCC4)CC3)c2)cc1 returned VACV Venus inh -17% and VACV mCherry inh 1%.
`CN1CCN(Cc2cccc3ncccc23)CC1CCO` (stereo not drawn) gave VACV Venus inh -10% and VACV mCherry inh -14%.
`O=C(NCCc1ccccc1)C(NS(=O)(=O)c1cccc2nsnc12)c1ccccc1` (stereo not drawn) gave VACV Venus inh -13% and VACV mCherry inh -11%.
Screening Cc1ccc(CNC(=O)c2ccc3c(c2)N(Cc2ccccc2)C(=O)c2ccccc2S3(=O)=O)cc1 returned VACV Venus inh -9% and VACV mCherry inh -8%.
`COc1ccc(C2SCCN2C(=S)Nc2cccc(C(F)(F)F)c2)cc1` (stereo not drawn) gave VACV Venus inh 4% and VACV mCherry inh inactive.
For COC(=O)CCC(=O)Nc1ccc(Cl)c(Cl)c1 the results were VACV Venus inh -8% and VACV mCherry inh inactive.
Screening CCOc1ccc(CN(CCc2ccc3c(c2)OCO3)Cc2cc(OC)ccc2O)cc1 returned VACV Venus inh 0% and VACV mCherry inh -11%.
CCn1ncc(/C=C/C(=O)Nc2c(C)nn(Cc3ccc(Cl)cc3Cl)c2C)c1C was read as VACV Venus inh -28% and VACV mCherry inh -17%.
Screening CCCc1cc(=O)oc2cc(OCC(=O)NC3CC(C)(C)NC(C)(C)C3)ccc12 returned VACV Venus inh -5% and VACV mCherry inh -14%.
Screening COc1ccc(N=C(C)C2=C(O)COC2=O)cc1 returned VACV Venus inh -23%.
`Cc1cccc(N2CCN(C(=O)CS(=O)(=O)Cc3nc(-c4ccccc4C)oc3C)CC2C)c1` (stereo not drawn) gave VACV Venus inh -3% and VACV mCherry inh -9%.
For COc1ccc(-c2csc(NC(=O)CS(=O)(=O)c3ccccc3)n2)cc1OC the results were VACV Venus inh -25% and VACV mCherry inh inactive.
For O=C(CNC(=O)c1ccccn1)N/N=C/c1ccc2c(c1)OCO2 the results were VACV Venus inh 7% and VACV mCherry inh inactive.
Screening Cc1ccc(NC(=O)/C(=C\c2ccccc2)NC(=O)c2ccco2)cc1 returned VACV Venus inh -4% and VACV mCherry inh -8%.

Source: PubChem (National Center for Advancing Translational Sciences (NCATS))
